# UCH37 inh: inhibitors of human UCH37 deubiquitinase, primary screen, biochemical, Ub-AMC cleavage, fluorescence | inhibition, % (test concentration not listed) | 0.33% of 330,000 active | purified proteasome/UCH37 | Ubiquitin carboxyl-terminal hydrolase isozyme L5 (Homo sapiens), Q9Y5K5;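 active = mean of two replicates above 20%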;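 note: 0% = compound-free wells with enzyme and 100% = wells lacking proteasome; stock transfer was 100 nL into about 20 µL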
#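 Assay system: Proteasome-bound UCH37. Buffer or medium: pH 7.4 Tris-HCl (50 mM) with ovalbumin, ATP-MgCl2, DTT. Incubation: 30 min preincubation with enzyme, 25 min cleavage at room temperature. Measured by: fluorescence, ex 355 nm, em 460 nm. Read-out basis: percent inhibition. Control set: wells without proteasome as full block, compound-free enzyme plus substrate as uninhibited.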
# A1 inh: caspase 3/7 activation in MEF A1-2A-BIM cells, primary screen, A1 inhibitor project, cell-based, luminescence, HTS; Caspase-Glo 3/7 luminescence, 3 h; percent of clofoctol response, vehicle zero; caspase activation, % (concentration not given with the values); 0.066% of 330,000 active; AID 2462, 2010;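 active = over half of replicate activation scores above 10%, or exactly half above 10 with the replicate mean above 10; inconclusive = replicate mean below 10 yet half the replicates above 10; inactive = over half of replicates below 10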;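 note: wells of about 30 µL received 50 nL stock; many hits fall short of the cut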
# LANA-H2B inh: blockers of LANA interaction with H2A/H2B – biochemical, FP readout, HTS, primary screen. cell-free LANA-H2A/H2B peptide, fluorescence polarization. 0.6% of 320,000 active. inhibition, % (test concentration not listed). Protein LANA1 (Human herpesvirus 8 type P (isolate GK18)), Q9QR71; in the data active = inhibition mostly above about 10%, no sharp cut-off; inactive = mostly below about 6.7%;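 note: stock transfer was 7.5 nL into about 10 µL; 0% = median of vehicle wells and 100% = median of positive control wells; one replicate is shown; the record names a cut of 25% in any replicate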
# Target sequence (Q9QR71 whole entry, looked up): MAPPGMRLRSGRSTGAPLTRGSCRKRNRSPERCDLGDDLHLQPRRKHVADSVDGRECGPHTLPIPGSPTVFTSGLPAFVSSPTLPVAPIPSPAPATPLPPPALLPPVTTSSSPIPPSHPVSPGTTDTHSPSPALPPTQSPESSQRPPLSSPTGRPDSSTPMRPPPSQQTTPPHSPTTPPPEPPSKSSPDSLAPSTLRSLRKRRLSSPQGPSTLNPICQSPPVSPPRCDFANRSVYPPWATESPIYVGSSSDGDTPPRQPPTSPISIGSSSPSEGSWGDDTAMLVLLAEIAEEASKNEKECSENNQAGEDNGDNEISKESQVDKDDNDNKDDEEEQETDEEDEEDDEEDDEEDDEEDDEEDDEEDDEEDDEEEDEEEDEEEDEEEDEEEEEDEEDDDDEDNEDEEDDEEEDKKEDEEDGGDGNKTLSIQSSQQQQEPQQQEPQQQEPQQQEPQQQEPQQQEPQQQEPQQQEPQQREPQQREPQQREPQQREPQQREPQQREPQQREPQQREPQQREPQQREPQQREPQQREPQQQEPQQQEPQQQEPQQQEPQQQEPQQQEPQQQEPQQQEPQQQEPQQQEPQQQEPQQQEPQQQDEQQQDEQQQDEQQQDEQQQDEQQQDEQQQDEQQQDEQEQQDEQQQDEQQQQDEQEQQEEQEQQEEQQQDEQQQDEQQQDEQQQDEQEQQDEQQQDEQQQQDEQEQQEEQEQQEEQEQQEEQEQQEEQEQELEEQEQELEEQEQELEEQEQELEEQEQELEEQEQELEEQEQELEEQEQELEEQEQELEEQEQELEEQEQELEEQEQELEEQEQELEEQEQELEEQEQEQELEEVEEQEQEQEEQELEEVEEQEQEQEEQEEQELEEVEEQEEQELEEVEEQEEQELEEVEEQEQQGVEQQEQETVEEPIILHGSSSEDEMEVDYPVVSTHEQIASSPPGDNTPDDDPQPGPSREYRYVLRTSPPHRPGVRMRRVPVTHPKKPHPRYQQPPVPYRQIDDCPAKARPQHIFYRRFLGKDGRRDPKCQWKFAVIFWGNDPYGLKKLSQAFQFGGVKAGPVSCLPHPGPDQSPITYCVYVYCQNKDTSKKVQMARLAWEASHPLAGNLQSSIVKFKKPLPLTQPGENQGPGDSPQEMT
# RanGTP-Impb inh: inhibitors of RanGTP-importin-beta interaction, primary screen, biochemical, FRET, CFP-Ran, YFP-importin-beta, homogeneous; Ran GTPase (GTP-bound) - importin-beta complex; cell-free CFP-Ran/YFP-importin-beta FRET ratio; inhibition, % (no concentration beside the values); 1.1% of 300,000 active;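 active = most replicates above 15%; inconclusive = exactly half above 15%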;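 note: 0% = DMSO wells and 100% = Ran loaded with GDP instead of GTP; wells of about 40 µL received 100 nL stock; the first replicate is given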
# Calb FLC: C. albicans growth inhibition with fluconazole, primary screen, CaCi-2 strain, Alamar Blue fluorescence. C. albicans CaCi-2 (fluconazole-resistant clinical isolate) + fluconazole, 48 h. growth inhibition, % (concentration not given with the values). 0.57% of 300,000 active. AID 1979, 2009;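 active = most replicates above 75%; inconclusive = exactly half above 75%; inactive = most below 75%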;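 note: all wells also contain fluconazole at 8 µg/ml as a sub-toxic cotreatment; 0% = median of DMSO wells and 100% = median of geldanamycin control wells; wells of about 8 µL received 7.5 nL stock; the first replicate is given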
# B2AR ag: beta2AR agonists driving receptor internalization, primary screen, cell-based, FAP fluorogen, flow cytometry; Beta-2 adrenergic receptor (Homo sapiens), P07550; Am2.2-beta2AR cells; reference of the scale not given here; response, % (concentration not given with the values); 0.43% of 340,000 active;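 active = response above a set limit, near 3 SD of response in nonfluorescent compounds, cut at about 42% in these data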;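 note: stock transfer was 100 nL into about 11 µL; a reference agonist was the positive control; negative values mostly stem from fluorescent compounds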
# Beta cell apopt: inhibitors of cytokine-induced beta cell apoptosis, primary screen, luminescence | INS-1E cytokine-induced death, ATP luminescence, 48 h; percent of positive-control rescue, neutral wells zero | protection from apoptosis, % (test concentration not listed) | 0.8% of 300,000 active;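 active = all replicates at 75% or more, or half of them and the mean; inconclusive = half reach 75% but not the mean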;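 note: 0% = cytokine-treated negative control wells and 100% = positive control rescue; higher means more ATP so stronger rescue from cytokine killing; wells of about 40 µL received 100 nL stock; the first replicate is given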
# T cruzi repl: inhibitors of intracellular T. cruzi growth, primary screen, luminescence, NIH3T3 host cells. inhibition, % (concentration not given with the values). AID 1885, 2009. 1.4% of 300,000 active. T. cruzi beta-gal in NIH3T3, 90 h;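 active = mean inhibition across valid replicates above about 55%, limit read from the data; inconclusive = mean below that limit but half or more replicates reach it; inactive = mean below it, under half of replicates reach it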;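 note: signal also drops with host cell toxicity which is not excluded here; 0% = plate median of DMSO wells and 100% = zero luminescence signal; higher percent means less beta-gal luminescence so fewer parasites; stock transfer was 50 nL into about 50 µL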
# Starred values were filed as active, the others as inactive; ? = inconclusive; / = not tested or not shown.
SMILES,UCH37 inh,A1 inh,LANA-H2B inh,RanGTP-Impb inh,Calb FLC,B2AR ag,Beta cell apopt,T cruzi repl
Cc1cc(=O)[nH]c(Nc2cccc(C(F)(F)F)c2)n1,2.8,0.4,0.3,5.4,5,4,-6,-9
CC(C)C(=O)NC(=O)[C@@H]1CCCN1C(=O)/C=C/c1ccccc1,3.3,0.7,-2.5,3.8,0,1,-4,18
CCCN1C(=O)c2cc(C(=O)NC3CCCC3)ccc2C1O (stereo not given),7.3,-1.1,-3.5,2.1,6,-6,/,0
COc1ccc(Cn2c(=S)[nH]c3cc(C(=O)NCCCN4CCOCC4)ccc3c2=O)cc1,1.9,0.8,2.9,3.9,0,3,-6,-15
COCCn1c(=O)[nH]c2cc(C(=O)N3CCN(c4cccc(C)c4C)CC3)ccc2c1=O,5.5,1.8,-11,-2.7,-6,3,2,-12
CN(C)S(=O)(=O)N1CCN(CC(O)COc2ccc(-c3ccccc3)cc2)CC1 (stereo not given),2.2,0.4,-2.8,0.8,-11,10,3,-1
COc1cc(OC)c(OC)cc1CN1CCCC(C(=O)N2CCCC2)C1 (stereo not given),0.6,1.0,-1.6,-1.6,-17,-4,5,42
Cc1cc(C(=O)Nc2cccc([N+](=O)[O-])c2)c(C)o1,3.4,-0.1,0.0,4.1,1,-2,3,-3
COC(=O)C1=C(C)Nc2ncnn2C1c1ccc(C)o1 (stereo not given),5.1,0.2,1.4,-3.3,-5,9,1,-18
O=C1c2cccnc2C(O)N1Cc1ccccc1 (stereo not given),0.8,0.3,-3.4,-1.1,-2,9,1,-11
N#Cc1nc(COc2ccccc2)oc1NCCCn1ccnc1,1.6,-0.4,3.4,/,/,1,-6,/
Cc1ccc(S(=O)(=O)N2CCCOC2CNC(=O)C(=O)NCc2cccs2)cc1 (stereo not given),1.3,0.0,-2.5,0.9,-14,-4,/,-16
Brc1ccc(-c2nn3c(-c4ccccn4)nnc3s2)o1,-2.7,0.2,-1.9,1.4,13,-3,-3,13
O=C(Nc1cccc(S(=O)(=O)N2CCOCC2)c1)c1ccc2ccccc2n1,2.0,0.4,-5.2,0.2,8,28,-6,8
Cc1ccc2c(C)c(C(=O)N3CCC(O)(c4ccccc4)CC3)oc2c1C,4.2,-0.4,-2.1,2.0,17,-11,-8,23

# A different layout for some results above.
# Screens in order: UCH37 inh	A1 inh	LANA-H2B inh	RanGTP-Impb inh	Calb FLC	B2AR ag	Beta cell apopt	T cruzi repl
- O=C1c2cccnc2C(O)N1Cc1ccccc1 (stereo not given)
    0.8	0.3	-3.4	-1.1	-2	9	1	-11
- N#Cc1nc(COc2ccccc2)oc1NCCCn1ccnc1
    1.6	-0.4	3.4	/	/	1	-6	/
- Cc1ccc(S(=O)(=O)N2CCCOC2CNC(=O)C(=O)NCc2cccs2)cc1 (stereo not given)
    1.3	0.0	-2.5	0.9	-14	-4	/	-16

# (listing goes on)
SMILES,UCH37 inh,A1 inh,LANA-H2B inh,RanGTP-Impb inh,Calb FLC,B2AR ag,Beta cell apopt,T cruzi repl
CCC(=O)Nc1ccc(S(=O)(=O)Nc2nccs2)cc1,2.6,0.1,0.6,2.4,-1,-7,-6,-1
CCC(=O)N1CCc2cc(S(=O)(=O)CCC(=O)N3CCCC(C)C3)ccc21 (stereo not given),1.2,0.2,-0.5,5.4,-1,-12,-6,-7
CCOC(=O)c1ccc(C(=O)NNC(=O)C2C3C=CC(C3)C2C(=O)O)cc1 (stereo not given),1.6,-0.7,-0.1,/,-20,4,0,/
COc1ccccc1C(=O)NC(CCSC)C(=O)OCC(=O)N1CCCC1=O (stereo not given),0.6,0.8,-2.1,/,/,2,-2,/
Cc1cc(S(=O)(=O)N2CCOCC2)ccc1OCC(=O)Nc1ccc(F)c(Cl)c1,4.9,-0.5,-0.7,-4.6,12,0,-2,11
C/C(=N/NS(=O)(=O)c1ccc(C)cc1C)c1c[nH]c2ccccc12,/,-0.6,-2.8,1.3,15,3,2,1
CCN(CC)C(=O)c1ncn(C)c1C(=O)N(CC)CC,2.8,-0.3,-8.0,/,/,1,-8,/
COC(=O)C1=C(C)N=c2s/c(=C/c3cccs3)c(=O)n2C1c1ccc(F)cc1 (stereo not given),/,0.5,0.7,0.6,-2,-15,0,-6
CNC(=O)CN(c1ccc2c(c1)OCCO2)S(C)(=O)=O,-0.4,0.2,-1.8,-1.3,-6,-1,-8,3
Cc1cccc(N2CCN(C(=O)c3ccncc3)CC2)c1C,1.3,0.5,1.3,4.4,8,2,-4,-8
COc1ccc(OC)c(C2CC(=O)N3CN(c4cccc(Cl)c4)CSC3=C2C#N)c1 (stereo not given),3.6,-0.2,5.1,-4.3,0,1,-7,-4
COc1ccc(N/N=C/c2c(C(=O)O)ccc3ccccc23)cc1,/,1.1,-4.4,11,2,6,116*,49
Cc1ccc(CN2CCN(Cc3cccn3-c3ccccn3)CC2CCO)o1 (stereo not given),1.5,-0.3,1.1,-1.6,10,-1,4,-12
COc1ccc(NC(=O)CN(C)C(=O)c2cc3c(cc2Cl)N2CCCCCC2=NS3(=O)=O)cc1,1.4,-0.8,-5.7,1.8,2,25,2,-14
O=C(NCc1ccco1)C1CCCN(S(=O)(=O)c2ccc(-n3cnnn3)cc2)C1 (stereo not given),-2.1,-0.3,2.2,-0.6,-9,5,6,0
CCOc1ccc(C(=O)n2cc(C(=O)OC)c3ccccc32)cc1OCC,6.1,0.5,5.3,-2.1,4,3,-10,-9
O=C(NCc1ccccc1)c1c(F)c(F)c(F)c(F)c1F,-1.5,0.4,-2.4,0.6,-3,-8,-1,-5
CCOC(=O)C1CCCN(CC(O)COC(c2ccccc2)c2ccccc2)C1 (stereo not given),-0.1,-0.2,-1.4,4.5,0,1,-2,10
CCN(CC)S(=O)(=O)c1ccc(C(=O)NNC(=O)c2cccs2)cc1,-1.6,1.2,-1.4,-3.2,8,1,-2,1
CC1CCC(C(=O)NC(C(=O)NCCCN2CCOCC2)C(C)C)CC1 (stereo not given),2.5,0.0,0.4,-2.3,-6,-1,-5,0
O=C(NCc1ccco1)/C(=C/c1cccc([N+](=O)[O-])c1)NC(=O)c1ccco1,1.6,0.0,0.8,3.5,4,-1,-2,-10
COC(=O)CSc1nnc(CNC(=O)c2ccccc2F)n1-c1ccccc1,2.7,-0.3,-0.6,0.0,?,11,-1,-10
O=C(CCSCc1cccc(Cl)c1)NC1CCCC1,1.1,2.7,-9.6,?,1,-9,-2,3
O=C(CCc1nc2ccccc2s1)c1ccccc1,3.0,-0.9,1.4,-0.9,-21,-2,/,0
Oc1cc(O)c2c(c1)O[C@H](c1ccc(O)c(O)c1)[C@@H](O)C2,-2.5,0.4,-1.8,-0.1,-2,12,4,-7
CC(C)CCNC(=O)c1ccc2c(c1)ncn2C1CCCCC1,-0.2,0.0,2.9,-1.7,-5,8,-8,6
COc1ccc(-c2nnc3ccc(SCC(=O)Nc4cc(C)on4)nn23)cc1OC,4.5,-0.1,-2.0,1.7,3,4,11,10
O=C(NCC(c1ccco1)N1CCCC1)c1ccccc1Sc1ccc(C(F)(F)F)cc1[N+](=O)[O-] (stereo not given),0.2,0.0,-4.3,1.6,-8,-4,0,56*
COc1ccc2nc(/C=N/NC(=O)[C@H](CCSC)NC(=O)OC(C)(C)C)ccc2c1,/,-0.9,0.9,-1.7,-13,7,6,5
CCC1(C(=O)c2ccccc2)C2c3cc(Br)ccc3OC(=O)C21C(=O)N1CCOCC1 (stereo not given),4.6,-0.4,3.8,0.7,-1,3,-2,-15
O=C(NNc1nc(-c2ccccc2)cs1)c1ccco1,4.2,-0.7,-3.2,-4.2,1,0,/,0
Cc1nnc2n(-c3ccccc3)c(=O)c3c4c(sc3n12)COC(C)(C)C4,5.6,0.9,2.4,1.6,3,-4,-7,-15
CCCCOc1ccc(NC(=O)C(=O)NCCC2=CCCCC2)cc1,2.2,-0.7,-1.9,3.8,8,-1,1,3

# Of the compounds above, these contain an aryl methoxy group.
SMILES,UCH37 inh,A1 inh,LANA-H2B inh,RanGTP-Impb inh,Calb FLC,B2AR ag,Beta cell apopt,T cruzi repl
COc1ccc(Cn2c(=S)[nH]c3cc(C(=O)NCCCN4CCOCC4)ccc3c2=O)cc1,1.9,0.8,2.9,3.9,0,3,-6,-15
COc1cc(OC)c(OC)cc1CN1CCCC(C(=O)N2CCCC2)C1 (stereo not given),0.6,1.0,-1.6,-1.6,-17,-4,5,42
COc1ccccc1C(=O)NC(CCSC)C(=O)OCC(=O)N1CCCC1=O (stereo not given),0.6,0.8,-2.1,/,/,2,-2,/
COc1ccc(OC)c(C2CC(=O)N3CN(c4cccc(Cl)c4)CSC3=C2C#N)c1 (stereo not given),3.6,-0.2,5.1,-4.3,0,1,-7,-4
COc1ccc(N/N=C/c2c(C(=O)O)ccc3ccccc23)cc1,/,1.1,-4.4,11,2,6,116*,49
COc1ccc(NC(=O)CN(C)C(=O)c2cc3c(cc2Cl)N2CCCCCC2=NS3(=O)=O)cc1,1.4,-0.8,-5.7,1.8,2,25,2,-14
COc1ccc(-c2nnc3ccc(SCC(=O)Nc4cc(C)on4)nn23)cc1OC,4.5,-0.1,-2.0,1.7,3,4,11,10
COc1ccc2nc(/C=N/NC(=O)[C@H](CCSC)NC(=O)OC(C)(C)C)ccc2c1,/,-0.9,0.9,-1.7,-13,7,6,5
